# ClpP mod: qHTS Assay for Activators of ClpP; ATP-dependent Clp protease proteolytic subunit (Bacillus subtilis (strain 168)), P80244; purified B. subtilis ClpP, FRET peptide cleavage, 20 min; Potency, µM (titrated, usually from 57.5 µM), inactives show at the highest dose activity change, negative = active; actives 1.9% (n = 340,000); AID 651965, 2013; active = well fitted falling curve with a large enough effect; inconclusive = small, poorly fitted or top-dose-only effect; inactive = no such curve, though single readings can be large or run the other way; note: potency is the fitted concentration of half-maximal effect; the source files actives as falling curves though it sought activators and does not explain the sign; nearly all actives have a fitted effect of over 65% in size; many hits overshoot -100%
# Target sequence (P80244 whole entry, looked up): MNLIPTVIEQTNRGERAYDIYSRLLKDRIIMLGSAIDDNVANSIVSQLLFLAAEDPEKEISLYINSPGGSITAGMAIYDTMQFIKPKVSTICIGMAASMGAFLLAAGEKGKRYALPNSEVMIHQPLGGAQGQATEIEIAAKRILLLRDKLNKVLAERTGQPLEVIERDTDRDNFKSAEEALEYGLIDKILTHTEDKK
#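 Buffer: 100 mM Tris/HCl pH8, 100 mM KCl, 0.05% low protease BSA, 2.5% glycerol, 0.01% Tween-20. ClpP 10 microg/mL final; 20 min RT; delta FRET normalized to ADEP and DMSO controls.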
# TRPV1 potentiator: human TRPV1 potentiation; TRPV1-expressing cells, Fluo-8 calcium influx, capsaicin EC20 potentiation; host cell line not named in the record; control for the full effect not named in the record; potentiation, % at 8.33 µM; actives 0.02% (n = 320,000); AID 540277; active means potentiation above 80%; inconclusive means 30% to 80%; inactive means below 30%; note: 0% is about no effect
# Target sequence (Q8NER1 whole entry, looked up): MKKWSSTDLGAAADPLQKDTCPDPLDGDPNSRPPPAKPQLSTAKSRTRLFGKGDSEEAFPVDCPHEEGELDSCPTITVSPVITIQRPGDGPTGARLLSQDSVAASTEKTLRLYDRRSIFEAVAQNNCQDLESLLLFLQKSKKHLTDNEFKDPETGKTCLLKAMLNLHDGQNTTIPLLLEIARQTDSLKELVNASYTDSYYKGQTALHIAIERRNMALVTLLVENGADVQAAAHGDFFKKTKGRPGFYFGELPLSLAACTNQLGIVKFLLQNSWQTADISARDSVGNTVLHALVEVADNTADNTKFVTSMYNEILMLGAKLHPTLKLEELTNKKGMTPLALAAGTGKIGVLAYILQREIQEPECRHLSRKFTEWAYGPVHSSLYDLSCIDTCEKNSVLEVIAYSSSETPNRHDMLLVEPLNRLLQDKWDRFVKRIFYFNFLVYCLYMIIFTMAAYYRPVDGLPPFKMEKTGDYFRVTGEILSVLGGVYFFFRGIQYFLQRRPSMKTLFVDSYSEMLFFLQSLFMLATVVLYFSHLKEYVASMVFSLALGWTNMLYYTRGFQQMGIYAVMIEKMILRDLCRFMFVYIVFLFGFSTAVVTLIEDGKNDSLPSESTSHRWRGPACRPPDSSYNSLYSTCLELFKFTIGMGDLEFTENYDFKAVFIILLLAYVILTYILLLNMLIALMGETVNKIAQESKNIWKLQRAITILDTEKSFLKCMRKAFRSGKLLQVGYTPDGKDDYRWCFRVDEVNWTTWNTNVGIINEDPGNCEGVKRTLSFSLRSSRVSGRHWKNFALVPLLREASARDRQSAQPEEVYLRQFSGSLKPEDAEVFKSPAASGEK
#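 Cells expressing TRPV1 were dye-loaded with Fluo-8 and read kinetically: 10 s baseline, 3 min after compound (agonist portion), then 2 min after EC20 capsaicin (allosteric enhancer portion). Calcium-bound dye fluorescence at 480/520 nm.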
# Sfp inh: inhibitors of Bacillus subtilis Sfp phosphopantetheinyl transferase. Q9F4F7. Biochemical Sfp PPTase activity, qHTS. Potency, µM, for inactives: max response, negative = inhibition, hits mostly inhibitors. actives 3.5% (n = 310,000); active = well fitted inhibition curve with a large enough effect; inconclusive = small, poorly fitted or top-dose-only effect, or another doubt; inactive = no such curve, though single readings can be large or run the other way;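 note: the enzyme is Sfp with the accession as filed and its product quenches rhodamine fluorescence; potency is the fitted concentration of half-maximal effect; 0% = enzyme reaction without inhibitor and -100% = no enzyme wells; top concentration of the series not given in the record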
#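 Step 1, compound plus 15 nM Sfp-PPTase, 15 min, room temperature. Step 2, add rhodamine-CoA (5 uM) and BHQ-2-YbbR (12.5 uM). Step 3, read 525/598 nm fluorescence at 0 and 30 min.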
# PINK1 expr mod: PINK1 expression modulation; PINK1 immunofluorescence, high-content cytometry, 24 h; Potency, µM (top dose mostly 76.6 µM), for inactives: at the top dose activation (PINK1 increase), most hits filed as activators; actives 0.2% (n = 410,000); active = well fitted activation curve with a large enough effect; inconclusive = small, poorly fitted or top-dose-only effect; inactive = flat fitted curve, though single readings scatter; cell line not stated here;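 note: potency is the fitted concentration of half-maximal effect; % of control where 0% means no effect; nearly all actives have a fitted effect of over 65% in size; a mitochondrial uncoupler was the plate control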
#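 Decision-based qHTS: stable cells, 24 h exposure to five compound concentrations, CCCP as control. Fixed cells stained for PINK1 plus nuclear, mitochondrial and cell markers, cytometer read.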
# TRPML1 agonist: human mucolipin-1 channel agonism; TRPML1-expressing cells, Ca2+ dye fluorescence, FDSS; host cell line not named in the record; reference of the full effect not given here; activation, % (test concentration not listed); actives 0.12% (n = 410,000); in the data active = activation above about 50%; inconclusive = about 30% to 50%; inactive = below about 30%; note: 0% is about no effect; the text of the record puts the active cut at 80%
#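 Tetracycline-induced TRPML1-DL cells are seeded and incubated overnight before loading with a no-wash Ca2+ dye and quencher. Agonist activity is taken from the 110 s fluorescence read following compound pin-transfer on an FDSS, before EC80 54-4 challenge.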
# Menin-MLL FL inh: inhibitors of human menin-MLL interaction, wild-type MLL peptide; Fluorescence polarization, fluorescein-MLL peptide displacement from menin; FP activity change, % at 61.4 µM; 290,000 tested, under 10 active; AID 1766; inconclusive = falling polarisation curve, or a change in total fluorescence; inactive = total fluorescence flat and polarisation flat or rising; no compound was filed as active; the % refers to the polarisation; negative = inhibition;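 note: % of control where 0% means no effect; inhibitors lower the polarisation; unlabelled MLL peptide was the positive control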
# TRPML1 inh: blocks the human TRPML1 channel; Q9GZU1; TRPML1-inducible cells, Ca2+ dye fluorescence, FDSS; hits give low values; inhibition of EC80 agonist-evoked calcium signal; activity change, negative = inhibition, % (no concentration beside the values); actives 0.02% (n = 390,000); in the data active means activity change below about -50%; inconclusive means about -30% to -50%; inactive means above about -30%;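 note: stimulus is agonist 54-4 at its EC80 concentration; % is set by controls: 0 for no effect and ±100 for the full control effect; compound concentration not given in the record; the text of the record puts the active cut at -80%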
#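 TRPML1-DL cells, Tet-induced overnight (~16 h, 37 °C) at 1,500 cells/well, were loaded with Ca8 no-wash dye plus quencher for 45-90 min at room temperature. Compounds were pinned during FDSS kinetic reading; agonist 54-4 at EC80 (4 uM final) then added.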
# An asterisk follows results filed as active; ? = inconclusive; · = no result given; & = joins results of further samples; [ ] = dose if it differs, or a comment. Hits appear at their usual frequency (roughly 4.4% active in at least one column).
SMILES,ClpP mod,TRPV1 potentiator,Sfp inh,PINK1 expr mod,TRPML1 agonist,Menin-MLL FL inh,TRPML1 inh
C/C=C/C=C\C(=O)Nc1cccc(C2=NOC3(C2)C[C@H](C(N)=O)N(C(=O)/C=C/C)C3)c1 (some centres undefined),-0.6%,-8.5,22.4µM*,0.7%,-0.9,0.2,-0.7
CCOc1ccc(-n2c(-c3ccc(OC)cc3)c[n+]3c2CCCCC3)cc1,·,1.0,17.7%,15.8µM*,-0.7,5.9,1.2
COc1ccc(CCCc2n[nH]c(=S)o2)cc1,·,-9.8,-5.5%,-0.5%,1.7,-1.3,1.2
O=C(O)CSc1ccc(Oc2ccc(SCC(=O)O)cc2)cc1,·,10.0,12.1%,0.7%,-0.6,-1.2,-11.0
COc1ccc(NC(=O)c2oc3c(c2C)-c2nn(Cc4ccccc4Cl)cc2CC3)cc1OC,-8.9%,·,·,7.0%,1.9,·,5.9
CN(C)CCCNC(=O)C(=O)Nc1cc2c3c(c1)CCC(=O)N3CCC2,-1.2%,-2.6,20.0%,-0.3%,-0.4,-0.5,2.2
O=C(CCc1nnc2n(Cc3ccc(F)cc3)c(=O)c3ccccc3n12)NCCN1CCOCC1,-28.4%,9.0,14.3%,0.6%,-0.3,-3.3,13.1
Cc1cc(/C=N\NC(=O)CC(=O)NC2CCCCC2)c(C)n1-c1ccc(Cl)cc1,-4.2%,16.3,7.9%,-3.7%[38.3 µM],0.9,-0.6,11.2
Cc1cc(C)n(-c2cc(N3CCN(S(=O)(=O)c4ccc(Cl)cc4)CC3)ccc2[N+](=O)[O-])n1,0.3%,-26.7,-8.6%,-1.2%,-0.3,0.4,-3.9
Cc1ccc(Cl)cc1N1CCN(C(=O)COc2ccc3c(c2)CCC3)CC1,·,-10.3,-10.2%,5.0%,1.1,7.0,3.0
COc1ccccc1NC(=O)c1nnn(Cc2ccccc2)c1NC(=O)C(F)(F)F,1.7%,7.0,26.5%,?,0.4,2.5,-2.9
O=C(c1cccc(NS(=O)(=O)c2ccccc2)c1)N1CCN(c2ccccc2)CC1,·,-33.3,·,-0.3%,0.2,·,10.4
CC1Sc2ccc(S(=O)(=O)N3CCC(C(=O)NCc4ccc(Cl)cc4)CC3)cc2NC1=O (centres undefined),0.6%,24.9,2.8%,2.4%,-0.6,·,-2.4
CC(C)CC1NC(=O)c2cccnc2-n2c1nc1ccccc1c2=O (centres undefined),-7.3%,·,·,-0.1%,0.0,·,15.8
CCN1CCc2nc(NC(=O)c3cc(F)c(F)cc3Cl)sc2C1,·,-2.9,13.9%,0.1%,1.2,5.0,10.4
N#Cc1cccc(C(Br)S(=O)(=O)c2ccccc2)c1 (centres undefined),-0.6%,·,·,0.2%,-0.2,·,12.5
CCc1noc(C)c1C(=O)NCCc1ccc(F)cc1,-1.7%,10.1,·,1.4%,0.5,·,-9.5
NC(=O)c1sc2nc3c(cc2c1N)CCCCCC3,·,·,31.6µM*,-1.4%,2.0,-0.3,4.6
COC(=O)Cn1c(O)c(N=NC(=O)CNC(=O)COc2cccc(C)c2)c2ccccc21,1.5%,3.3,-6.8%,2.7%,-0.1,-1.0,3.8
Cn1cc([N+](=O)[O-])c(C(=O)NNC(=O)c2ccc([N+](=O)[O-])cc2Cl)n1,·,4.1,18.6%,-2.0%,0.4,-0.2,-0.9
CCOC(=O)c1ccccc1NC(=O)Cn1cnc2c(oc3ccccc32)c1=O,-10.7%,12.0,-6.5%,8.4%,-1.3,2.2,1.3
COc1ccc(S(=O)(=O)Nc2ccc3oc4c(c3c2)CCCC4)cc1,0.2%,·,·,3.9%,2.9,·,-3.6
O=C(c1ccccc1)c1cccc2ccccc12,·,·,·,27.4%,1.5,·,-0.8
Cc1noc(C)c1C(=O)N1CCN(C(=O)c2sc3cc(Cl)ccc3c2Cl)CC1,1.1%,-1.3,19.0%,1.4%[38.3 µM],-0.5,4.3,12.5
O=C(Nc1ncc2c(n1)-c1ccccc1OC2)c1ccc(Cl)cc1,?,·,-7.8%,-1.8%,1.9,1.3,-15.4
O=C(NNC(=O)C1CCN(Cc2cccc(F)c2)CC1)c1cccc(Cl)c1,-0.4%,-5.7,-1.4%,2.8%,-0.7,3.1,-4.2
O=C(CSc1nc2ncc(Cl)cc2[nH]1)NCC(=O)Nc1ccc(F)c(F)c1F,·,·,17.5%,-0.3%,-1.2,5.4,2.3
CCOc1ccc(S(=O)(=O)N2CCc3cc(OC)c(OC)cc3C2)cc1,1.1%,-7.2,-8.4%,1.4%,0.0,1.0,9.7
O=C(NC1CC(=O)N(c2ccc(F)cc2)C1)C1CCCCC1 (centres undefined),0.8%,·,·,0.7%,-0.3,·,6.6
COc1ccccc1C(=O)NNC(=O)c1ccccc1Br,0.9%,17.7,19.5%,0.3%,0.4,0.8,-0.1

# Laid out differently: results already given.
SMILES	ClpP mod	TRPV1 potentiator	Sfp inh	PINK1 expr mod	TRPML1 agonist	Menin-MLL FL inh	TRPML1 inh
O=C(Nc1ncc2c(n1)-c1ccccc1OC2)c1ccc(Cl)cc1	?	·	-7.8%	-1.8%	1.9	1.3	-15.4
O=C(NNC(=O)C1CCN(Cc2cccc(F)c2)CC1)c1cccc(Cl)c1	-0.4%	-5.7	-1.4%	2.8%	-0.7	3.1	-4.2

# Later entries.
SMILES,ClpP mod,TRPV1 potentiator,Sfp inh,PINK1 expr mod,TRPML1 agonist,Menin-MLL FL inh,TRPML1 inh
COc1ccc(OC)c(C(O)c2ncc(-c3cccc4ccccc34)[nH]2)c1 (centres undefined),5.0%,·,·,7.3%,-1.0,·,·
COc1ccc2cc3cc(C(=O)NCc4cccnc4)oc3nc2c1,·,-20.5,15.2%,1.6%,0.3,0.9,-13.0
COc1ccc2c(c1)cc1n2CCN=C1NN,?,24.8,-25.3%,-2.2%,-0.2,-1.3,17.5
CC(O)(c1ccncc1)c1nc(-c2cccc(C(F)(F)F)c2)cs1 (centres undefined),-0.5%,·,·,4.3%,-0.8,·,·
COc1ccc(C)cc1-n1c(-c2ccc(C)cc2)cc2c1CC(C)(C)CC2=O,-17.6%,·,·,1.1%,0.2,·,-4.5
O=C(NCc1ccccc1)c1ccc(COCC(F)(F)F)o1,0.6%,0.8,4.3%,7.6%[38.3 µM],-0.5,0.8,-6.1
CN1CCC(N(C)C(=O)/C(C#N)=C/c2ccccc2)CC1,-0.4%,20.7,-4.0%,1.3%,-0.1,3.1,6.6
CCNc1nc(NC(C)C)nc(Oc2ccc(=O)n(C)n2)n1,·,0.1,6.4%,0.7%,-0.4,3.1,4.5
O=c1cc(NCc2ccco2)c2ccccc2o1,-1.7%,5.6,18.0%,3.4%,-0.6,5.3,14.3
COc1ccc(NC(=O)N2CCCCCC2)cc1OC,-0.5%,16.3,2.4%,0.1%,0.1,-0.7,-16.3
CCOC(=O)[C@]12CCCC=C1N(Cc1ccc3c(c1)OCO3)C(=O)[C@H](CC(=O)N1CCSCC1)C2,0.7%,·,·,1.5%,-0.4,·,·
CCOC(=O)C1CCN(CC(=O)Nc2cc(S(=O)(=O)N3CCCCC3)ccc2Cl)CC1,-2.5%,-15.5,·,3.5%,9.5,·,-19.6
Cc1nnc(NC(=O)c2ccccc2-c2ccccc2C(=O)O)s1,·,-4.1,-14.0%,0.2%,0.9,4.0,3.8
CCc1nn2c(=O)c(S(=O)(=O)Nc3ccc(Cl)cc3)c(C)nc2s1,0.2%&2.2%,12.1&2.3,3.6%,1.0%&0.1%,-0.4&0.9,3.3,4.1&4.8
CCN(CC)CCCNC(=O)c1ccc2c(c1)NC(=O)C(CS(=O)(=O)Cc1cccc(Br)c1)N2 (centres undefined),3.55µM*,·,·,0.8%,0.5,·,-0.4
CCCCCN(C(=O)CCC(=O)OCC(=O)NC1CCC(C)CC1)c1c(N)n(CCCC)c(=O)[nH]c1=O (centres undefined),-1.9%,-0.6,·,2.3%,-0.3,·,30.0
Nc1nc(SCC(=O)NC2CCCc3ccccc32)n[nH]1 (centres undefined),·,5.4,19.2%,1.8%,0.7,0.8,-8.5
O=C(c1ccc(COc2ccccc2[N+](=O)[O-])o1)N1CCCCCC1,-1.0%,-15.8,11.8%,-2.6%,2.5,-0.8,22.9
CC(=O)Nc1ccc(-c2ccnc3c2CC(C)(C(=O)NCCC(F)(F)F)O3)cc1 (centres undefined),4.7%,·,·,8.4%,-0.6,·,·
Cn1nc(C(F)(F)F)c(C(=O)Nc2cccc(Cl)c2)c1Cl,1.0%,0.9,13.1%,5.0%,1.0,0.7,37.5
CCOC(=O)COc1ccc2c(=O)c(-c3ccccc3)coc2c1,·,-2.8,7.5%,1.4%,-0.2,1.9,7.0
O=C(/C=C/c1cccc(Cl)c1)NCCCN1CCOCC1,0.6%,-13.7,20.9%,-0.1%,-0.1,0.4,7.7
Cc1cnc(CNc2ncnc3ccc(-c4ccccc4C(F)(F)F)cc23)cn1,·,·,-2.3%,-0.9%,·,-1.6,·
COC(=O)CN=C1OC(=O)N2C(=O)C3=C4[C@@H](C[C@H]5C(=O)N(c6ccccc6)C(=O)[C@H]5[C@H]4[C@@]12Cc1ccccc1)[C@H]1C(=O)N(c2ccccc2)C(=O)[C@H]1[C@H]3C,-2.2%,15.9,-2.2%,1.0%,0.0,5.1,3.4
C=CCn1c(O)c(C(CC)=NCc2cccnc2)c(=O)[nH]c1=O,0.0%,-1.4,3.0%,-1.3%,-0.2,3.4,13.4
Cc1ccc2c(c1)c(CC(=O)Nc1ccc(F)cc1)c(C(=O)O)n2C,-14.1%,7.9,3.5%,2.7%[38.3 µM],0.7,1.3,7.3
CCN1CCN(C(=O)CCc2nnc(CCc3c[nH]c4ccccc34)o2)[C@@H](C)C1=O,-1.5%,7.1,15.1%,-0.1%,0.2,-0.8,6.6
COc1ccc(CN2C(=O)c3cccc4cccc(c34)C2c2nc3ccccc3[nH]2)cc1 (centres undefined),-22.1%,·,·,-0.2%,-0.4,·,·
Cn1cnc([N+](=O)[O-])c1Sc1ncccc1N,1.5%,13.1,?,0.7%[38.3 µM],-0.6,-0.2,-1.6
CS(=O)(=O)N1CCCC(C(=O)N2CCN(c3cccc(Cl)c3)CC2)C1 (centres undefined),·,-6.0,-1.2%,-3.3%,0.1,-2.1,-10.2
S=C1NCCOCCOCCOCCOCCNC(=S)N2CCOCCOCCN1CCOCC2,-0.1%,0.8,-4.2%,2.0%,-0.8,0.1,1.9
CCOc1ccc(CCNC(=O)c2ccc3c(c2)sc2nc(-c4ccc(F)cc4)cn23)cc1OCC,25.1µM*,·,·,3.2%,0.1,·,28.6
